Source: PubChem
Cruzain Triton: cruzain (T. cruzi) inhibition with detergent | P25779 | purified cruzain, Z-FR-AMC fluorescence, 0.01% Triton | Potency, µM, inactives show max response, negative = inhibition, actives largely listed as inhibitors | 200,000 tested, 0.43% active | AID 1478; active = well fitted curve in the direction sought with a large enough effect; inconclusive = small, poorly fitted or top-dose-only effect, or another doubt; inactive = no such curve, though single readings can be large; an effect the other way counts as inactive or inconclusive;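 also: plate controls were neutral wells for no effect and buffer without enzyme for full effect; nearly all actives have a fitted effect of over 40% in size; top concentration of the series not given in the record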
Target sequence (P25779 123-467 limits assumed): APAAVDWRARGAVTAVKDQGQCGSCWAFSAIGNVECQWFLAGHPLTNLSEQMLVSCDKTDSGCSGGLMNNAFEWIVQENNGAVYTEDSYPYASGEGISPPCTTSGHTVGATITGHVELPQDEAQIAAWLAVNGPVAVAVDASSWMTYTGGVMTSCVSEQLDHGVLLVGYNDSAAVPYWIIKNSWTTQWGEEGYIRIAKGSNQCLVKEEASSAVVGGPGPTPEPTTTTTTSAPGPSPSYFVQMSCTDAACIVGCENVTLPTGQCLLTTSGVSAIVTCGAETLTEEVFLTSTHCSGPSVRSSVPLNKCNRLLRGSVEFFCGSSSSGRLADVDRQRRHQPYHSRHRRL
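Enzyme 1.5 nM, Z-FR-AMC 2 uM, NaOAc 100 mM pH 5.5, DTT 5 mM, Triton X-100 0.01%; 15 min RT compound preincubation; kinetic ex360/em450, 60 s delta.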
StopGo reporter: FMDV 2A StopGo reporter, luciferase signal. human cells with a luciferase reporter of 2A StopGo recoding; control for the full effect not named in the record. Potency, µM (doses to about 57.9 µM), for inactives: at the top dose signal change, negative = less light. 410,000 tested, 1.2% active. AID 1159524; active = well fitted falling curve with a large enough effect; inconclusive = small, poorly fitted or top-dose-only effect; inactive = no such curve, though single readings can be large or run the other way; tested in HEK293T cells; also: % is scaled to controls: 0 for no effect and ±100 for the full control effect; nearly all actives have a fitted effect of over 45% in size; luciferase light after 4 h
RE007 growth inh: less growth of the S. pombe RE007 Vpr strain. S. pombe RE007 Vpr strain, BacTiter-Glo ATP luminescence, 24 h; control for the full effect not named in the record. Potency, µM (highest dose often 92.2 µM), for inactives: top-dose activity change, negative = less growth. 360,000 tested, 0.21% active. AID 651644; active = well fitted falling curve with a large enough effect; inconclusive = small, poorly fitted or top-dose-only effect; inactive = no such curve, though single readings can be large or run the other way;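 also: % is scaled to controls: 0 for no effect and ±100 for the full control effect; nearly all actives have a fitted effect of over 50% in size; the assay follows cell death caused by Vpr and the record does not say whether a fall means rescue or toxicity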
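Fission yeast RE007 carrying one integrated HIV-1 vpr copy, seeded at OD 0.01 in PMG+AL medium with 23 nL pinned compound. Grown 24 h at 30 degrees; viability read by BacTiter-Glo luminescence after 5 min.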
LASV entry inh: Lassa virus entry inhibition; Lassa virus pseudotype entry inhibition, cell reporter; control for the full effect not named in the record; Potency, µM (doses to about 37.9 µM), for inactives: at the highest dose activity change, negative = inhibition, usual class: inhibitors; 300,000 tested, 1.2% active; active means well fitted inhibition curve with a large enough effect; inconclusive means small, poorly fitted or top-dose-only effect, or effect the other way; inactive means flat fitted curve, though single readings scatter; tested in HEK293 cells; also: % is scaled to controls: 0 for no effect and ±100 for the full control effect; nearly all actives have a fitted effect of over 50% in size; luciferase read-out
MARV entry inh: Marburg virus entry inhibition. Marburg virus pseudotyped entry inhibition, cell reporter; control for the full effect not named in the record; about a third of the inactives were read at about 46 µM. Potency, µM (titrated, usually from 37.8 µM), inactives show at the highest dose activity change, negative = inhibition, actives largely listed as inhibitors. 300,000 tested, 1.8% active; active = well fitted inhibition curve with a large enough effect; inconclusive = small, poorly fitted or top-dose-only effect, or effect the other way; inactive = flat fitted curve, though single readings scatter; tested in HEK293 cells; about a fifth of its hits are not listed in these tables; also: % is scaled to controls: 0 for no effect and ±100 for the full control effect; luciferase read-out
SARS PLP yeast: blocks SARS-CoV papain-like protease in a yeast assay; AID 485353; S. cerevisiae expressing SARS-CoV PLpro, growth rescue; control for the full effect not named in the record; Potency, µM (series often up to 32.9 µM), without a hit: at the highest dose activity, positive = growth rescue; 330,000 tested, 0.19% active; also: 0% is about no effect; nearly all actives have a fitted effect of over 55% in size; growth read by luminescence after 48 h
NS1 inh: blocks influenza NS1 protein function; S. cerevisiae slowed by influenza A NS1, growth recovery by OD600; Potency, µM (series often up to 46.1 µM), inactives show top-dose activity, positive = more growth; 270,000 tested, 0.4% active; AID 2326; also: actives are rising curves; nearly all actives have a fitted effect of over 50% in size
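Read-out: OD600 growth recovery of NS1-expressing budding yeast. Cells grown overnight at 30C in -URA glucose medium, washed, resuspended and diluted 1:100 in 2% galactose assay medium, pH 6.0. Same strain lacking NS1 served as positive control.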
Cruzain noTriton: cruzain (T. cruzi) inhibition without detergent; purified cruzain, Z-FR-AMC fluorescence, no detergent; Potency, µM, inactives show max response, negative = inhibition, actives largely listed as inhibitors; P25779; 200,000 tested, 2.3% active; AID 1476; active = well fitted curve in the direction sought with a large enough effect; inconclusive = small, poorly fitted or top-dose-only effect, or another doubt; inactive = no such curve, though single readings can be large; an effect the other way counts as inactive or inconclusive;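 also: plate controls were enzyme without inhibitor for no effect and buffer without enzyme for full effect; nearly all actives have a fitted effect of over 40% in size; top concentration of the series not given in the record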
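Detergent-free condition (0.00005% Triton X-100) in acetate buffer pH 5.5 with DTT. 1.5 nM enzyme and compound were pre-mixed 15 min, then 2 uM Z-FR-AMC substrate added; reaction progress from fluorescence change between first and third reads (60 s).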
The depositor's hits bear a star; ? = inconclusive; · = not tested or not shown; & = joins results of further samples; [ ] = another dose, or the depositor's remark. Unless noted, calls follow the shape of the dose curve; as a rule, active means well fitted rising curve with a large enough effect; inconclusive means small, poorly fitted or top-dose-only effect; inactive means no such curve, though single readings can be large or run the other way. Potency is read from the fitted curve at half-maximal effect.

SMILES | Cruzain Triton | StopGo reporter | RE007 growth inh | LASV entry inh | MARV entry inh | SARS PLP yeast | NS1 inh | Cruzain noTriton
Cc1cc(NC(=O)C(C)Sc2nc(-c3ccccc3)cc(=O)[nH]2)no1 (stereo not given) | · | 7% | 10% | 5% | -2% | · | 10% | ·
O=c1[nH]c2ccc(Cl)cc2c(O)c1-c1ccccc1 | 0.6% | -13% | -9% | 4% | -2% | 1% | -4% | 0%
CCCCCCNC(=O)c1c(O)c2ccccc2[nH]c1=O | -0.4% | 39%[activator] | 26% | -1% | 20%[46.1 µM] | -1% | -4% | 25µM*
Cn1c(=S)[nH]c2cccnc21 | 5.5% | 20% | -25% | -9% | 2% | -4% | 6% | -10%
CCCCCC(=O)Nc1ccc(S(=O)(=O)Nc2cc(OC)nc(OC)n2)cc1 | · | 36%[activator] | -10% | ? | 3% | 1% | 8% | ·
COc1ccc(/C=C2\SC(=O)N(CCCC(=O)Nc3cc(Cl)ccc3C(=O)O)C2=O)cc1 | · | 0.28µM* | -1% | 0.4µM* | 1.3µM* | -7% | · | ·
Cc1cc(C)n(C(=O)CN2C(=O)c3ccccc3C2=O)n1 | -0.9% | · | -7% | -2% | 7% | -2% | 0% | 1%
Cc1ccccc1S(=O)(=O)Cc1ccc(C(=O)NC(C)c2ccc3c(c2)OCCO3)o1 (stereo not given) | 2.5% | -18% | 4% | · | · | 9% | -12% | -1%
CSc1ccc(CN(C)C(=O)c2cccc(S(=O)(=O)NCc3ccccc3)c2)cc1 | · | -18% | 0% | · | · | 0% | 2% | ·
COc1ccc(CN2C(=O)/C(=C/c3ccncc3)SC2=S)cc1 | -8.7% | -9% | -5% | ? | ? | 3% | -23% | 16%
COc1ccc(N(CC(=O)NN=C2CCN(C)CC2)S(=O)(=O)c2ccccc2)c(OC)c1 | · | -1% | 13% | 9%[46.1 µM] | 21%[46.1 µM] | -3% | 22% | ·
Cc1ccc(-n2ncc(C(=O)N3CCN(Cc4ccccc4)CC3)c2C2CCN(C(=O)OC(C)(C)C)CC2)cc1 | -1.2% | 0% | · | ? | · | · | · | ?
Cc1cc(/C=N/n2cnnc2)c(C)n1-c1cc(Cl)ccc1Cl | -10% | · | 22% | 3% | -26% | -7% | -85% | -4%
Cc1ccc(NC(=O)C(Cc2ccccc2)n2cccc2)cc1 (stereo not given) | -6.6% | -1%&-2% | -9% | -1% | -15%&1%[46.1 µM] | -5% | -10% | 10%
Cc1ccccc1-n1c(SCc2c(C)noc2C)nnc1-c1ccncc1 | 2.2% | 3% | 7% | -1% | 16%&16% | 3% | 10% | 7%
CCC(=O)c1ccc(OCC(=O)N2CCN(c3ccccn3)CC2)cc1 | · | -21% | -29% | 2% | -12% | -1% | -8% | ·
O=C(NCc1cccnc1)C1CCN(Cc2cc3ccccc3n2Cc2cccc(Cl)c2)CC1 | -3.0% | 17% | · | -21%[46.1 µM] | · | · | · | 9%
O=C(CSc1nccn(-c2ccc(F)c(Cl)c2)c1=O)NC1CCCC1 | · | -18% | -6% | -19% | 0% | -1% | · | ·
C=CCC(c1ccccc1)N(C(C)=O)c1ccco1 (stereo not given) | · | -7% | 3% | -12%[46.1 µM] | -14%[46.1 µM] | 2% | · | ·
COc1ccc(-c2nc3ccccc3c(=O)n2-c2c(C)n(C)n(-c3ccccc3)c2=O)cc1 | · | -9% | 10% | 11% | 12%[46.1 µM] | 0% | 0% | ·
O=C(Nc1ccccc1)c1cc([N+](=O)[O-])ccc1Cl | -2.2%&-2.3% | ? | 6% | -4% | ? | -1% | -3%&-2% | 3%&6%
O=C(Cn1ncc(Cl)c(Cl)c1=O)c1ccc(Cl)cc1 | -2.0% | 35µM* | 27% | ? | 2.9µM* | -52% | -13% | -21%
CC12CS(=O)(=O)CC1SC(=S)N2c1ccccn1 (stereo not given) | -2.8% | -2% | -7% | -2% | 0%[46.1 µM] | -5% | 0% | 0%
N/C(=N\OC(=O)c1ccc2c(c1)OCO2)c1ccc(Cl)cc1 | 2.4% | · | ? | -30% | -24% | -9% | -141% | -28%
CN(C)S(=O)(=O)Oc1ccsc1C(=O)Nc1ccc(Cl)cc1 | -9.2% | -27% | -19% | 14% | 5% | -10% | -68% | -5%

Two entries picked at random from the list so far, as already listed:
SMILES | Cruzain Triton | StopGo reporter | RE007 growth inh | LASV entry inh | MARV entry inh | SARS PLP yeast | NS1 inh | Cruzain noTriton
O=C(CSc1nccn(-c2ccc(F)c(Cl)c2)c1=O)NC1CCCC1 | · | -18% | -6% | -19% | 0% | -1% | · | ·
Cc1cc(C)n(C(=O)CN2C(=O)c3ccccc3C2=O)n1 | -0.9% | · | -7% | -2% | 7% | -2% | 0% | 1%

Compound profiles, from the list above.
`COc1ccc(N(CC(=O)NN=C2CCN(C)CC2)S(=O)(=O)c2ccccc2)c(OC)c1` is listed as Cruzain Triton: ·; StopGo reporter: -1%; RE007 growth inh: 13%; LASV entry inh: 9%[46.1 µM]; MARV entry inh: 21%[46.1 µM]; SARS PLP yeast: -3%; NS1 inh: 22%; Cruzain noTriton: ·
`C=CCC(c1ccccc1)N(C(C)=O)c1ccco1` (stereo not given) is listed as Cruzain Triton: ·; StopGo reporter: -7%; RE007 growth inh: 3%; LASV entry inh: -12%[46.1 µM]; MARV entry inh: -14%[46.1 µM]; SARS PLP yeast: 2%; NS1 inh: ·; Cruzain noTriton: ·
`Cc1ccccc1-n1c(SCc2c(C)noc2C)nnc1-c1ccncc1` is listed as Cruzain Triton: 2.2%; StopGo reporter: 3%; RE007 growth inh: 7%; LASV entry inh: -1%; MARV entry inh: 16%&16%; SARS PLP yeast: 3%; NS1 inh: 10%; Cruzain noTriton: 7%

Additional structures.
SMILES | Cruzain Triton | StopGo reporter | RE007 growth inh | LASV entry inh | MARV entry inh | SARS PLP yeast | NS1 inh | Cruzain noTriton
COc1ccc(CCNc2cc(C)nc3c(-c4ccccc4)cnn23)cc1OC | -20% | 6% | -18% | 8.9µM* | 9.2µM* | -34% | 23% | ?
COC(CNC(=O)c1c[nH]c2ccc(S(=O)(=O)N(C)c3ccc(F)cc3)cc2c1=O)OC | · | -21% | 5% | -30%[46.1 µM] | 10%[46.1 µM] | 1% | -6% | ·
Cc1nccn1Cc1cccc2ccccc12 | 2.8% | -22% | -7% | -9% | 4% | -1% | -1% | -19%
CCN1CC2CCCC3(C1)C(=O)NC1(CCCCC1)N=C23 (stereo not given) | 2.0% | 5% | 4% | 17% | 4% | 0% | -2% | 2%
COc1ccc(-c2nc(C#N)c(NCc3ccccc3Cl)o2)cc1OC | -12% | · | 0% | 5% | ? | 10% | -2% | -23%
COC(=O)c1sccc1NC(=S)Nc1ccc(F)cc1F | · | 51%[activator] | -9% | · | · | -2% | 5% | ·
Fc1ccc(NC(=S)N2CCn3cccc3C2c2cccnc2)cc1 (stereo not given) | · | 20% | -13% | 12% | ? | -3% | · | ·
CCOc1ccc(-n2c(=O)c3c4c(sc3n(Cc3cc(=O)n5cc(Cl)ccc5n3)c2=O)CCC4)cc1 | -4.5% | -8% | · | -4%[46.1 µM] | -15%[46.1 µM] | · | · | -2%
Cc1[nH][nH]c(=O)c1C(c1ccc(-c2ccc(F)cc2)o1)c1c(C)[nH][nH]c1=O | · | -28% | -12% | -6%[46.1 µM] | 17%[46.1 µM] | -4% | -6% | ·
CCCSc1nnc(-c2cccc(S(=O)(=O)N(C)C)c2)n1-c1cc(OC)ccc1OC | -6.5% | 16% | 4% | -5% | -3% | -8% | -5% | ?
O=c1c(F)cn(C2CCCO2)c(=O)n1Cc1ccccc1F (stereo not given) | 2.6% | · | -3% | 13% | ? | -1% | -4% | -3%
CCn1cc(CN2CCC(C(=O)Nc3ccc(Oc4ccccc4)nc3)CC2)cn1 | · | -22% | -10% | 2% | ? | 1% | 20% | ·
COc1cccc(NC(=O)C(=O)NCCc2csc3nc(-c4ccccc4C)nn23)c1 | -0.6% | 5% | · | ? | · | · | · | -4%
C/C(=N\NC(N)=O)c1ccc(Cl)s1 | · | 13% | -2% | 3% | -1%[46.1 µM] | -3% | -1% | ·
CC1CCN(C(=O)COC(=O)Cn2cnc3ccccc32)CC1 | · | -6% | 88% | -13% | ? | 20% | · | ·
O=C(C1CCCCC1)N1CCN(S(=O)(=O)c2ccc(Br)cc2)CC1 | 1.5% | ? | 14% | 18µM* | ? | 2% | -6% | -2%
COc1ccccc1C(C#N)N1N=C(C)CC1c1ccccc1 (stereo not given) | · | -12% | 1% | · | · | -5% | 11% | ·
COc1cccc(NC(=O)CCN2CCN(c3ccccc3F)CC2)c1 | 3.8% | 0% | 0% | -21% | ? | ? | -10% | 0%
Cc1ccc(C(=O)N(CC(C)C)c2c(N)n(Cc3ccccc3)c(=O)[nH]c2=O)o1 | · | -5% | 26% | -22% | 9%[46.1 µM] | 0% | · | ·
COc1ccc(C2c3[nH]c4ccccc4c3C[C@H]3C(=O)N(c4ccccc4C(=O)N4CCC(C(=O)O)CC4)C(=O)N23)cc1 (stereo not given in full) | · | -13% | -9% | · | · | 1% | -1% | ·
Nc1nnc(C(=O)c2ccccc2N)s1 | · | 0% | 11% | 6% | 25%&25% | · | -31% | ·
CCOC(=O)c1c(NC(=O)C2CCN(S(=O)(=O)c3ccc(Cl)cc3)CC2)sc2c1CCCC2 | -5.5% | -10% | 10% | 3% | -9% | 5% | -2% | 16µM*
O=C(NCc1ccccc1)NCc1cccs1 | · | 37%[activator] | -3% | 15%[46.1 µM] | ? | 1% | -1% | ·
O=C(COC(=O)CSc1ccc([N+](=O)[O-])cc1)NCCC1=CCCCC1 | · | -11% | -9% | 3% | 28% | -5% | · | ·
CCOc1cc(/C=C2/C(=N)N3OC(C)=CC3=NC2=O)ccc1OC(=O)c1ccco1 | · | -20% | -10% | -13% | -6% | 6% | · | ·
CCOC(=O)CCCNC(=O)CCNC(=O)c1ccc(OC)cc1 | -1.4% | 11% | -2% | 1% | 15% | -5% | 10% | 1%
Cc1ccc(N2CCN(c3ncnc4onc(-c5ccc(F)cc5)c34)CC2)c(C)c1 | -1.3% | -16% | · | 16%[46.1 µM] | · | · | · | 5%
